PV pol inh: poliovirus RdRp elongation inhibitors, primary screen, biochemical, fluorescence polarization, total intensity; Genome polyprotein (Poliovirus type 1 (strain Mahoney)), P03300; poliovirus polymerase elongation; active compounds read low; % elongation, % (compound at 16.7 µg/mL); hit rate 0.66% among 150,000; AID 588519, 2011; in the data active = % elongation below about 90%; note: some results filed as inactive read as strong as hits
Target sequence (P03300 1749-2209 limits assumed): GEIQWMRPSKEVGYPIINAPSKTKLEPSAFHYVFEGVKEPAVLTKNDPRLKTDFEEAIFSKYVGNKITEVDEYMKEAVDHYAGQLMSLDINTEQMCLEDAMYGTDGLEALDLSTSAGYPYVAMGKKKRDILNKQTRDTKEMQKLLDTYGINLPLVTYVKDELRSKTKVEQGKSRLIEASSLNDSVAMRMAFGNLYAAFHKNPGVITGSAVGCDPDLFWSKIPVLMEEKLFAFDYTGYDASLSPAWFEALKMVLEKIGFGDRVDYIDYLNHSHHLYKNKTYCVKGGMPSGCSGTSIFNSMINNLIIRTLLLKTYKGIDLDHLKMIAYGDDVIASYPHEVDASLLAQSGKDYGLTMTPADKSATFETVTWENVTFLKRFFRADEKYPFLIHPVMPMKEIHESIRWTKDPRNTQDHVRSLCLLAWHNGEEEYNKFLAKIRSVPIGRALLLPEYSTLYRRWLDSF
MenB inh: M. tuberculosis MenB inhibitors, primary screen, biochemical, absorbance; MenB enzyme assay, absorbance read-out; some hits fall short of the stated cut; inhibition, %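 (about 12 µg/mL by stock and volumes)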; hit rate 0.43% among 100,000;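 active = mean of two replicates above 30%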;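 note: 0% = no compound and 100% = wells with inactive enzyme; the first replicate is given; strong numbers were not always called active; inactives centre near -10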
Target sequence (P9WNP5 whole entry, looked up): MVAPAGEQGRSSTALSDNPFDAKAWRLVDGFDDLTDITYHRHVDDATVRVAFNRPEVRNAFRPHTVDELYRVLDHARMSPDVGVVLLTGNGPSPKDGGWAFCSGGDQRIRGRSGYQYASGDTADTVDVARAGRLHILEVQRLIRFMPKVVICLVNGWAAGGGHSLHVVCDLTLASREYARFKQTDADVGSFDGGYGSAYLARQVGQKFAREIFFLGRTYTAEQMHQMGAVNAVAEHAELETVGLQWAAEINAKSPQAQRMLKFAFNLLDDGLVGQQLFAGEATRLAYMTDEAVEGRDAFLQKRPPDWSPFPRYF
MbtI inh: MbtI salicylate synthase inhibitors, primary screen, biochemical, fluorescence intensity | purified MbtI enzyme, fluorescence intensity read-out | inhibition, %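 (about 17 µg/mL by stock and volumes)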 | hit rate 0.89% among 100,000;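 active = above 50% in both replicates, above 80% if mildly self-fluorescent; inactive = the rest, strongly fluorescent compounds included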;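 note: 0% = mean of negative and 100% = mean of positive controls; one replicate is shown; some compounds called inactive have numbers as strong as hits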
PV pol inh intensity: also measured in PV pol inh; calls as there; % elongation; measured here: total intensity read-out; formula for this scale not given here;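 total fluorescence in place of polarization; lower means less elongation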
Active calls of the source: *; / = not tested or not shown.

The opening 3 records (preview)
SMILES	PV pol inh	PV pol inh intensity	MenB inh	MbtI inh
COCc1[nH]nc(N)c1-c1ccccc1	100	101	-2	-26
COc1ccc(OC)c(C2N(Cc3ccc(C)cc3)CCCN2Cc2ccc(F)cc2)c1 (configuration not stated)	102	99	-1	6
CCNC(=O)c1ccc2c(c1)sc1nc(-c3ccc(OC)cc3)cn12	103	104	-4	-24

The list itself, repeating the preview:
SMILES	PV pol inh	PV pol inh intensity	MenB inh	MbtI inh
COCc1[nH]nc(N)c1-c1ccccc1	100	101	-2	-26
COc1ccc(OC)c(C2N(Cc3ccc(C)cc3)CCCN2Cc2ccc(F)cc2)c1 (configuration not stated)	102	99	-1	6
CCNC(=O)c1ccc2c(c1)sc1nc(-c3ccc(OC)cc3)cn12	103	104	-4	-24
CCN(C(=O)CSc1nnc2scc(-c3cccc(OC)c3)n12)c1ccccc1	/	/	-18	-6
N#CCCn1nnc(CCN2C(=O)c3ccccc3C2=O)n1	101	100	-2	-8
O=C(C1Cc2ccccc2CN1S(=O)(=O)c1ccc2c(c1)OCCO2)N1CCCC1 (configuration not stated)	102	110	-8	-19
Cc1cccc(NC(=O)Nc2cccc(C)c2)c1	100	101	-14	-6
CCN(C(=O)CSc1nc2ccccc2nc1C)C1CCCCC1	104	108	/	-11
CCOC(=O)c1cnc(C(F)(F)F)nc1NNC(=O)c1ccccc1	103	105	-13	15
CCCn1cc(SCC(=O)Nc2sc3c(c2C(=O)OCC)CCC3)c2ccccc21	102	97	-24	7
CCn1c(CNc2ccc(C)cc2)nnc1SCc1ccccc1	105	101	-41	-15
CC1CC(C)CN(C(=O)COc2ccccc2F)C1 (configuration not stated)	101	101	/	-3
CC(C)c1ccc(C2C(C#N)=C(N)C(C#N)(C#N)C3=CCN(C)CC32)cc1 (configuration not stated)	105	157	-8	/
CC1CCCN(Cc2cc(Cl)cc(Cl)c2O)C1 (configuration not stated)	100	103	2	-2
Nc1cc(C(=O)OCC(=O)c2csc(N3CCCCC3)n2)ccc1Cl	107	110	-40	-16
Cc1cccc(C)c1N=C1NC(=O)CS1	97	100	/	-1
Cc1cc(C(=O)C(C)OC(=O)c2ccc(S(=O)(=O)NCc3ccco3)cc2)c(C)n1-c1ccc(Cl)cc1 (configuration not stated)	103	104	-27	-13
CC1(C)CC(=O)C(CC(=O)N2CCCCCC2)=C(O)C1	97	97	-9	8
CC(Sc1nncn1-c1ccccc1)C(=O)Nc1ccccc1 (configuration not stated)	101	107	-21	-5
Clc1ccc(C2=NNC(=NCc3ccc4c(c3)OCO4)SC2)cc1	85*	87*	-29	47
CCOc1cc2c(cc1/C=C1/NC(=O)N(Cc3ccccc3)C1=O)OCO2	99	103	-19	-67
CC(Oc1ccc(Cl)cc1Cl)C(=O)NNc1nc(Cl)nc(N(C)C)n1 (configuration not stated)	102	103	-1	-20
Cc1ccc(C(=O)/C=C/Nc2ccc(F)c(Cl)c2)o1	99	104	-40	-11
C=CCc1c(C)[nH]c2c(OC)cccc2c1=S	103	101	-78	53
O=C(Cn1c(C(F)(F)F)nc2ccccc21)Nc1ccc(S(=O)(=O)NCc2ccco2)cc1	106	111	-4	-1
O=C(NC1CCCCC1)c1cccnc1Nc1ccccc1F	100	102	-5	-17
CCC1(CC)Cc2ccccc2-c2nc3[nH][nH]c(=S)n3c(=O)c21	101	95	-30	51
O=C1OC2(c3ccccc3)C3CCCC2C13Sc1ccccc1	108	111	-20	/
Cc1ccc(C(=O)NCc2ccccc2F)s1	104	112	-1	-19
CCC(=O)N1CCN(c2nc(-c3ccccc3)c3c(c2C#N)CCCC3)CC1	98	103	-12	12
COc1ccc(Br)cc1CNC(=O)c1cc2oc3ccccc3c2n1C	100	103	1	-3
Cc1ccc(NC(=O)c2ccc(C#N)cc2)cc1	104	102	-5	-6
COc1ccc(N(C(=O)c2ccco2)S(=O)(=O)c2ccccc2)cc1	98	102	7	6
Cn1c(NCc2c(O)ccc3ccccc23)nc2ccccc21	101	104	-10	-44
O=C(NCc1cccnc1)C(=O)c1c(O)[nH]c2ccccc12	100	96	/	6
O=c1cc(CSc2ccc(Cl)cc2)nc(N2CCCCC2)[nH]1	102	100	24	2
CC(=O)N1CCC2(CC1)CC(=O)c1cc(OCC(=O)NCc3ccco3)ccc1O2	103	107	-24	109
O=C(Nc1ccccc1C(=O)NCCCN1CCOCC1)c1ccco1	105	102	-56	-11
Cc1noc(C)c1C(=O)O	101	101	11	-3
O=c1c2ccccc2nc(SCc2nnc(-c3ccccc3)o2)n1CCc1ccccc1	101	103	-15	-5
CCN(CC)C(=S)Nc1ccc(Cl)c(Cl)c1	103	102	-18	1
COc1cc2nc(COc3ccccc3)oc(=O)c2cc1OC	100	102	-3	2
O=C(CN1C(=O)c2cccnc2Oc2ccc(Cl)cc21)N1CCc2ccccc21	100	100	-12	-6
CC(C)C(=O)Nc1cccc(C(=O)Nc2nncs2)c1	102	102	28	20
CCNC(=O)CC1C(=O)N(c2ccccc2)C(=O)N1CCC(C)C (configuration not stated)	100	103	-35	-10
O=C1OC2(CCCC2)OC(=O)C1=Cc1ccc(Br)cc1	102	106	-14	13
Cn1c(=O)c2c(ncn2CCC(=O)NC2CCCCCCC2)n(C)c1=O	106	105	-24	2
N#Cc1c(/N=C/c2c(F)cccc2Cl)oc(-c2ccco2)c1-c1ccco1	105	109	-48	-60
CC(Oc1ncnc2ccccc12)C(=O)Nc1cc(Cl)cc(Cl)c1 (configuration not stated)	102	102	/	-2
COc1ccc(CC(C)Nc2ccc3c(c2)OCO3)cc1 (configuration not stated)	96	106	-31	-62
c1ccc2c(c1)C(=Nn1cnnc1)c1ccccc1-2	104	104	/	0
Cc1cc(NNC(=O)c2ccc(Cl)cc2)nc2c1c(C)nn2C	104	101	-12	15
CCc1ccccc1NC(=O)NCc1ccccc1OC	99	101	-1	-13
COc1ccc2c(C)nc(N/C(N)=N/S(=O)(=O)c3ccc(C)cc3)nc2c1	100	96	-5	20
NC(=O)c1ccc(-c2ccccc2)cc1C(N)=O	100	102	-19	-8
O=C(C1CCN(S(=O)(=O)N2CCCC2)CC1)N1CCC2(CC1)OCCO2	99	105	-28	-8
Cn1ccnc1SCC(O)c1ccccc1 (configuration not stated)	105	102	0	-4
c1ccc(C2CC(c3ccccc3)n3ncnc3N2)cc1 (configuration not stated)	101	109	-3	-8
CC(C(=O)Nc1ccc(Br)c(Cl)c1)N1C(=O)C2C3C=CC(C3)C2C1=O (configuration not stated)	101	102	-24	-1
Oc1ccc(CNC2CCN(Cc3ccccc3)C2)cc1 (configuration not stated)	93	93	-18	-14

(listing goes on)
SMILES	PV pol inh	PV pol inh intensity	MenB inh	MbtI inh
C/C(CC1(O)C(=O)Nc2ccccc21)=N\O (configuration not stated)	102	104	/	1
CCc1ccc(NC(=O)C(CC)CC)cc1	99	102	4	-13
CC1CCc2c(sc3ncnc(SCC#N)c23)C1 (configuration not stated)	103	106	-5	24
O/N=C/c1cn(-c2ccccc2)nc1-c1ccccc1	101	102	-14	-11
Cc1ccccc1Oc1ncnc2sc3c(c12)CCCC3	103	107	/	-6
N#CC1(NC(=O)COC(=O)c2ccc3c(c2)CCCC3)CCCCC1	102	106	-29	46
O=C(Nc1nc2ccccc2n1CCN1CCOCC1)C1CCCCC1	104	108	-6	-11
CNCC(=O)Nc1cccc2ccccc12	103	102	-19	21
CC(=O)NC1C(=O)SC1(C)C (configuration not stated)	100	95	-31	19
CCc1ccc(C(=O)NCCOC)s1	101	101	-16	-7
Cc1c(C(=O)NCc2ccccc2Br)oc2ccccc12	100	102	-13	-12
COc1ccc(CN(Cc2cccs2)C(=O)Cc2c(C)noc2C)cc1OC	104	104	-2	-11
Cc1cc(C)nc(NS(=O)(=O)c2ccc(NC(=O)c3cc(S(=O)(=O)N4CCOCC4)ccc3C)cc2)n1	107	102	-10	-9
O=C(NC(=S)NC1CC1)c1ccco1	105	100	10	29
COc1ccc(C2CC(c3cccs3)=NN2C(=O)COC(=O)Cn2cnnn2)cc1OC (configuration not stated)	98	99	-22	-83
O=C(O)c1ccccc1SC(C(=O)O)c1ccccc1 (configuration not stated)	98	106	16	-10
C=CCn1c(Sc2ccc(S(=O)(=O)N(CC)c3ccccc3)cn2)nnc1C1CCCCC1	103	106	-16	-6
Cc1ccc2oc(C(=O)N(C)c3ccccc3)c(C)c2c1	101	102	-6	-12
Cc1csc(=O)n1CC(=O)OCC(=O)NC1CCCCCCC1	103	103	-1	0
CCc1nc2ccc(C(=O)O)cc2nc1CC	83	144	-1	4
CN1CCCN(C(c2ccccc2)c2ccc(Cl)cc2)CC1 (configuration not stated)	100	101	-1	-12
CCOC(=O)c1cnc2cc(C(F)(F)F)ccc2c1N1CCN(c2ccc(OC)cc2)CC1	101	101	2	1
CCC(Oc1cccc(C)c1)c1nc2ccccc2[nH]1 (configuration not stated)	103	102	-44	-11
CC(O)CNCC(=O)Nc1ccccc1Br (configuration not stated)	91	96	-21	-1
CCOC(=O)c1c(C)oc(C)c1S(=O)(=O)Nc1ccccc1	104	101	1	2
O=C(Cc1noc2ccccc12)NCCc1ccc(Cl)cc1	105	105	-16	-4
CC(=O)Nc1ccc(S(=O)(=O)NC(=O)CC(C)C)cc1	102	102	-1	-14
O=C(COC(=O)Cn1[nH]c(=O)c2ccccc2c1=O)Nc1ccccc1C(=O)NC1CC1	102	97	-29	6
Cc1nn(-c2ccccc2)c(C)c1CN(C)C(=O)CCCn1c(=O)oc2ccccc21	103	110	-7	-13
Cc1ccc(N2C(=O)c3ccc(C(=O)O)cc3C2=O)cc1	102	100	-21	2

Three records drawn at random from the list so far, as already listed:
SMILES	PV pol inh	PV pol inh intensity	MenB inh	MbtI inh
CC(Sc1nncn1-c1ccccc1)C(=O)Nc1ccccc1 (configuration not stated)	101	107	-21	-5
O=C(Nc1ccccc1C(=O)NCCCN1CCOCC1)c1ccco1	105	102	-56	-11
CCn1c(CNc2ccc(C)cc2)nnc1SCc1ccccc1	105	101	-41	-15

Whole records from above. Values in the order: PV pol inh | PV pol inh intensity | MenB inh | MbtI inh
O=C(Cc1noc2ccccc12)NCCc1ccc(Cl)cc1 reads 105 | 105 | -16 | -4
Cc1csc(=O)n1CC(=O)OCC(=O)NC1CCCCCCC1 reads 103 | 103 | -1 | 0
CCOC(=O)c1cnc2cc(C(F)(F)F)ccc2c1N1CCN(c2ccc(OC)cc2)CC1 reads 101 | 101 | 2 | 1
Cc1ccc(N2C(=O)c3ccc(C(=O)O)cc3C2=O)cc1 reads 102 | 100 | -21 | 2

(further entries)
SMILES	PV pol inh	PV pol inh intensity	MenB inh	MbtI inh
CCNc1nc(NCC)n2c(SCC(=O)c3cccs3)nnc2n1	105	111	-9	/
CC1CCCC(C)N1C(=O)CSc1ccccc1 (configuration not stated)	102	108	/	-15
N#Cc1ccccc1Cn1c(=O)n(CCCCC(=O)NCc2ccco2)c(=O)c2ccccc21	102	106	-9	-1
CC(=O)Nc1ccccc1C(=O)N1CCCCC1	102	98	2	/
CC(C)N(C(=O)Cn1nnc2ccccc21)c1ccccc1	104	110	-2	/
N#CCCN(CC1CCCO1)S(=O)(=O)c1cccc2nsnc12 (configuration not stated)	102	105	-24	9
NNC(=O)COc1cccc(Oc2ccccc2)c1	103	104	5	2
O=C(O)c1ccc(NC(CC(=O)c2ccc(Cl)cc2)c2ccccc2)cc1 (configuration not stated)	102	105	-14	12
COC(=O)c1ccc(COc2ccccc2C(=O)c2cnn(-c3ccccc3)c2)o1	114	125	-37	8
Cc1cccc(OCc2ccc(C(=O)NCCCN3CCOCC3)cc2)c1	104	106	-19	-17
NS(=O)(=O)c1ccc(NC(=O)COC(=O)c2cccc(Cl)c2)cc1	106	102	-29	-15
CCC1(CC)C(C)=[N+](C)c2ccccc21	106	113	-30	5
CCOC(=O)C1=C(c2ccc(Cl)cc2)Sc2nnc(C(F)(F)F)n2N=C1N	120	121	-38	/
CC(C#N)(NC(=O)COc1ccccc1Br)C1CC1 (configuration not stated)	104	105	-50	-6
Cc1ccccc1Cn1c(C)c(CNC2CCCC2)c(C(=O)O)c1C	105	107	5	-12
CC1(C)Cc2ccccc2-c2nc(NCCCO)n(-c3ccccc3)c(=O)c21	102	98	-36	-78
COc1ccc(NC(=S)Nc2ccc(N3CCOCC3)c3nonc23)cc1OC	98	100	-35	14
CC(=O)NC(=O)CSc1nnc(NC(=O)CSc2nc3ccccc3s2)s1	100	102	-11	-4
CCOC(=O)c1nn(-c2ccccc2)c2nc(=O)c(C#N)c(-c3ccccc3)n12	105	104	9	32
CCNC(=O)C1CCCN(S(=O)(=O)N(C)c2ccc(F)cc2)C1 (configuration not stated)	103	102	-11	-3
C(=NC1=NN(c2ccccc2)CC1)c1ccccc1	99	100	-20	2
Cc1ccc(COc2cccc3c2CCN(C)C3=O)cc1	99	104	-13	-12
O=C(COC(=O)c1ccc2c(c1)OCCO2)NC1CCCC1	107	110	-17	-4
COc1ccc(N2C(=O)CC(N3CCN(c4ccc(S(C)(=O)=O)cc4)CC3)C2=O)cc1 (configuration not stated)	100	102	-4	49
